Screening data deposited in PubChem BioAssay by National Center for Advancing Translational Sciences (NCATS).
PINK1 expr mod = A Quantitative High throughput Screen to Identify Chemical Modulators of PINK1 Expression; PINK1 immunofluorescence, high-content cytometry, 24 h; Potency, µM (series often up to 76.6 µM), inactives show top-dose activation (PINK1 increase), usual class: activators; 0.2% of 410,000 active; active = well fitted activation curve with a large enough effect; inconclusive = small, poorly fitted or top-dose-only effect; inactive = flat fitted curve, though single readings scatter; cell line not stated here;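 also: % of control where 0% means no effect; nearly all actives have a fitted effect of over 65% in size; a mitochondrial uncoupler was the plate control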
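Fluorescence from anti-PINK1 antibody, together with nuclear and cell stains, was scanned on a laser-scanning cytometer. Before staining, stable-line cells were incubated 24 hours with compounds at 5 concentrations; primary antibody 12 h at 10 degrees C.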
Active calls of the source: *; ? = inconclusive. Potency is read from the fitted curve at half-maximal effect. These rows are one share of the data; rates above refer to the full screens.

compound	PINK1 expr mod
COc1ccc(Cl)cc1NC(=O)CCS(=O)(=O)c1nc(-c2cccs2)cc(C(F)(F)F)n1	3.3%
O=C(COc1ccccc1)Nc1nnc2n1CCS2	1.0%
Cc1ccc(Cl)cc1N1CCN(CCCNC(=O)c2ccc3nc(N4CCCCC4)sc3c2)CC1	0.6%
Cc1ccc(C)c(NC(=O)c2cc(S(=O)(=O)N3CCc4ccccc4C3)ccc2F)c1	-1.0%
CC(=O)c1ccc(S(=O)(=O)N2CCn3cccc3C2c2ccc(C)cc2)cc1 (stereo unspecified)	2.6%
O=C(NCc1ccccc1Cl)c1c2c(nc3ccccc13)C(=O)N(C1CCCCC1)C2	1.6%
COCCCNc1ncnc2sc(C(=O)N3CCCCC3)c(C)c12	-0.8%
CCCC(CCC)C(=O)Nc1cccc(-c2cn3cccnc3n2)c1	-0.4%
CCN(C(=O)c1cc2c(=O)oc3ccc(C)cc3c2s1)c1ccccc1C	1.6%
COc1ccc(CCNC(=O)c2cnn(-c3cccc(C)c3)c2C2CCNCC2)cc1OC	-2.8%
CC(C)c1ccc(Nc2c(-c3ccccc3O)nc3cnccn23)cc1	?
Cc1oc2cc3oc(=O)c(CC(=O)NCc4ccccc4)c(C)c3cc2c1C	-0.6%
CCN(CCCNC(=O)c1cc2c(=O)[nH]c3ccccc3c2s1)c1ccccc1	4.9%
Cc1nn(-c2ccccc2)c(-n2cccc2)c1C(=O)N1CCN(c2ccccc2)CC1	0.1%
CCOc1ccccc1NS(=O)(=O)c1ccc2c(c1)CC(C)N2C(=O)C1CC1 (stereo unspecified)	-0.3%
Cc1cccc2c1-c1sc(C(=O)NCc3ccccc3Cl)cc1CO2	-0.1%
Cc1cc(Cl)ccc1NC(=O)CSc1nc2c(c(=O)[nH]1)CCC2	-0.6%
Cc1ccnc(NC(c2ccccc2F)c2ccc3cccnc3c2O)c1 (stereo unspecified)	2.1%
CCc1ccccc1NC(=O)c1ccc(F)c(S(=O)(=O)N2CCN(c3cccc(Cl)c3)CC2)c1	-1.1%
Cc1nc2c(C(=O)N(C)Cc3ccccc3)c[nH]n2c(=O)c1Cc1ccc(Cl)cc1	9.1%
CCc1cccc(C)c1Nc1c(-c2cccs2)nc2nc(C)cc(C)n12	1.0%
COc1ccccc1OCCCSc1nc(-c2ccc(C(C)(C)C)cc2)nc2cc(=O)[nH]n12	0.8%
Oc1cccc(-c2nc3ncccn3c2Nc2cccc(C(F)(F)F)c2)c1	1.3%
COc1ccccc1Cn1cc(C(=O)c2ccccc2)c(=O)c2cc(OC)c(OC)cc21	-0.2%
CCCCNC(=O)C1CCN(C(=O)N2CC(C)Oc3ccc(Cl)cc32)CC1 (stereo unspecified)	-0.2%
COc1ccc(CNC(=O)CSc2ncc3c(n2)-c2cc(Cl)ccc2N(Cc2ccccc2)S3(=O)=O)cc1	-0.4%
CCOC(=O)c1cccc(NC(=O)CN2C(=O)CC(C)(C)Sc3ccccc32)c1	-1.4%
CC(=O)c1ccc(NS(=O)(=O)c2ccc(Br)s2)cc1	1.2%
Cc1cccc(Cn2nnc(C(=O)Nc3cc(C)ccc3C)c2N)c1	2.2%
COc1ccc(NC(=O)CCS(=O)(=O)c2nc(-c3cccs3)cc(C(F)(F)F)n2)cc1	5.1%
c1ccc(C(c2cccs2)c2c[nH]c3ccccc23)cc1 (stereo unspecified)	-0.7%
Cc1ccc(NC(=O)Cn2c(=O)n(-c3ccc(CC(=O)NCC4CCCO4)cc3)c(=O)c3ccccc32)cc1 (stereo unspecified)	0.0%
CCC(Sc1nc2nccnc2c(=O)n1Cc1ccc(OC)cc1)C(=O)NC1CCCCC1 (stereo unspecified)	1.7%
CCc1nc2ccc(C(=O)NCc3cccc(Br)c3)cc2nc1CC	0.4%
COc1cccc(-c2nc(CS(=O)(=O)CC(=O)NCc3ccc(C)cc3)c(C)o2)c1	-0.1%
Cc1ccc(N2CCN(c3nc4ccccc4n4nnnc34)CC2)c(C)c1	-0.5%
COc1ccccc1NC(=O)c1sc2nc(-c3cc4ccccc4oc3=O)[nH]c(=O)c2c1C	7.1%
O=C(CSc1nnc(-c2ccc(Cl)cc2)o1)c1ccc([N+](=O)[O-])cc1	-0.9%
COc1ccc(S(=O)(=O)NCCc2sc(C)nc2C)cc1F	0.8%
COc1ccc(OC)c(S(=O)(=O)NCCc2sc(-c3ccc(C)cc3)nc2C)c1	-0.6%
COc1ccc(NC(=O)c2c(C)oc3ccc(O)c(CN4CCOCC4)c23)cc1	1.3%
COCCCN1C(=O)c2oc3ccccc3c(=O)c2C12C(=O)N(C)c1ccccc12 (stereo unspecified)	0.4%
Cc1ccc(CSc2nc3cccnc3n2Cc2ccc(C(=O)NCc3ccco3)cc2)cc1	3.3%
O=C(NC1CCCCC1)c1ccc2c(c1)N(Cc1cccc(Cl)c1)C(=O)c1ccccc1S2(=O)=O	3.7%
Cc1ccn2c(=O)cc(CSc3nnc(C)s3)nc2c1	27%
CCCn1cnc2cc(NCc3ccccc3OCC)ccc21	0.5%
Cc1ccc(Nc2c3c(nc4ccccc24)CCC3)cc1F	?
CC(C)c1ccc(C(=O)Nc2cccc3cccnc23)cc1	3.0%
Cc1ccc(-n2c(=O)c3ccc(C(=O)NCc4ccco4)cc3n(Cc3cccc(Cl)c3)c2=O)cc1	1.9%
COc1cccc(-c2ccnc3c(-c4ccccc4)c(C)nn23)c1	1.3%
CCOC(=O)N1CCc2c(sc3c2c(=O)n(-c2ccc(CC)cc2)c(=O)n3Cc2cccc(OC)c2)C1	0.6%
CCOC(=O)c1cccc(NC(=O)CC2C(=O)N(c3ccc(F)cc3)C(=O)N2C(C)C)c1 (stereo unspecified)	3.7%
Cc1ccc(CSc2nnc3[nH]c(=O)cc(C)n23)cc1	21%
COCCNC(=O)CSc1nc(-c2ccccc2C)nc2c1c(=O)n(C)c(=O)n2C	-0.9%
CCOc1ccc(NC(=O)Cn2c(=O)n(-c3ccccc3)c(=O)c3ccc(C(=O)NCc4ccc5c(c4)OCO5)cc32)cc1	0.1%
Cc1ccc(Nc2c(-c3ccco3)nc3ccc(C)cn23)cc1	1.2%
Cn1cnc(S(=O)(=O)N2CCC(C(=O)N3CCN(c4ccccc4F)CC3)CC2)c1	-1.0%
Cc1cc(S(=O)(=O)Nc2cc3c(cc2N2CCOCC2)n(C)c(=O)n3C)ccc1F	-0.9%
Cn1nc(C(=O)NCc2ccc(Cl)cc2)c2c1-c1ccccc1SC2	5.0%
CCOC(=O)c1ccc(S(=O)(=O)N2CCN(c3nc(-c4cccs4)nc4ccccc34)CC2)cc1	0.9%

In a second layout: results already given.
CC(C)c1ccc(C(=O)Nc2cccc3cccnc23)cc1
  PINK1 expr mod: 3.0%
COc1cccc(-c2ccnc3c(-c4ccccc4)c(C)nn23)c1
  PINK1 expr mod: 1.3%
Cc1ccc(CSc2nc3cccnc3n2Cc2ccc(C(=O)NCc3ccco3)cc2)cc1
  PINK1 expr mod: 3.3%

(continued)
compound	PINK1 expr mod
COc1cc(NC(=O)CSc2nc(-c3ccc(C)cc3)nc3c2Cc2ccccc2O3)cc(OC)c1	0.2%
Cc1nn(C)c2c1c(C(F)(F)F)cc(=O)n2C(C)C(=O)N1CCN(c2ccccc2)CC1 (stereo unspecified)	2.7%
NC(=O)C1CCN(C(=O)c2cccc(NC(=O)c3nsc4ccccc34)c2)CC1	-1.3%
COc1ccc(NC(=O)CCSc2nc(-c3ccc(OC)cc3)cc(C(F)(F)F)n2)cc1	3.7%
COC(=O)c1sc2cccc(F)c2c1S(=O)(=O)Nc1ccc(N(C)C)cc1	0.1%
Cc1ccc(Cn2c(SCc3ccc(C(=O)NC4CCCC4)cc3)nc3ccncc32)cc1	2.5%
CCc1cccc(NCc2ccccc2-c2nnc(-c3ccccc3Cl)o2)c1	-0.3%
O=C(NCc1ccc(Cl)cc1)C(=O)NCC(c1ccc2c(c1)OCO2)N1CCOCC1 (stereo unspecified)	0.1%
COc1ccc(NC(=O)Cn2c(-c3ccc(F)cc3)cc(C(C)=O)c2C)c(OC)c1	-0.2%
COc1ccc(OCCn2nnc3sc4c(c3c2=O)CCC(C(C)(C)C)C4)cc1 (stereo unspecified)	6.2%
Cc1cc(NC(=O)c2cccn2-c2nnc(N3CCCCC3)s2)ccc1Br	2.5%
Cc1nn(C)c2c1c(C(F)(F)F)cc(=O)n2CC(=O)N1CCCCC1C (stereo unspecified)	0.0%
CCOC(=O)c1cc(CC)sc1NC(=O)COc1ccccc1C	-0.4%
COc1ccc(CCNC(=O)c2cnc3ccc(C)cn3c2=O)cc1OC	-0.7%
Cc1cc(C)cc(NC(=O)N2CCC(N3CCN(Cc4ccccc4)C(=O)C3=O)CC2)c1	2.1%
COc1ccc(OC)c(C2CC(=O)c3c([nH]c(C(=O)OC4CCC(C)CC4)c3C)C2)c1 (stereo unspecified)	10%
Cc1cccc(N2CCN(C(=O)Cn3c(-c4cccs4)cc4ccccc43)CC2)c1C	0.3%
CCc1cccc(-n2c(=O)c3cccnc3n2CC(=O)Nc2ccc(OC)c(Cl)c2)c1	-1.2%
Cc1cccc(-n2nnc(-c3nc(-c4cccs4)no3)c2N)c1	1.6%
COCCCNC(=O)CCn1c(=O)c2ccccc2n(CC(=O)Nc2c(C)cc(C)cc2C)c1=O	0.1%
Cc1ccc2cc3cc(C(=O)N(C)c4ccccc4C)oc3nc2c1	-0.6%
Cc1ccc(NC(=O)C2CCN(S(=O)(=O)c3cc(-c4noc(C)n4)ccc3C)CC2)c(C)c1	2.7%
COc1ccc(OC)c(/C=C2\Cc3ccccc3C2=O)c1	0.1%
Oc1c(C(c2ccccc2)N2CCN(Cc3ccccc3)CC2)sc2nc(-c3ccco3)nn12 (stereo unspecified)	-0.5%
COc1cccc(NC(=O)CN2C(=O)C3(SCC(=O)N3c3cc(C)cc(C)c3)c3ccccc32)c1 (stereo unspecified)	-5.3%
COc1ccccc1CNC(=O)c1ccc(-c2nc(CS(=O)(=O)c3ccc(C)cc3)c(C)o2)cc1	2.0%
CCN(C(=O)c1ccc2c(c1)N(Cc1cccc(Cl)c1)C(=O)c1ccccc1S2=O)c1ccccc1 (stereo unspecified)	2.4%
O=C(O)/C=C/c1ccc2ccccc2c1	1.3%
COc1ccc(Cn2c(=O)n(-c3ccc(F)c(Cl)c3)c(=O)c3c2c2cc(OC)ccc2n3C)cc1	0.1%
Cc1ccc(S(=O)(=O)N(CC(=O)NCCSc2ccc(Cl)cc2)c2ccccc2C)cc1	0.7%
Cc1cc(S(=O)(=O)Nc2ccc3oc4c(c3c2)CCCC4)ccc1Cl	-0.4%
COc1ccc(CCN2CCC(CNC(=O)c3cnn(-c4ccccc4)c3C3CCN(C(=O)OC(C)(C)C)CC3)CC2)cc1	0.6%
CC(C)(C)C(=O)CSc1n[nH]c(-c2ccccc2)n1	-0.6%
Cc1ccc2oc(=O)c3cc(C(=O)Nc4cccc(C#N)c4)sc3c2c1	0.7%
Cc1cc(C)c(Cn2c(=O)n(CCCCC(=O)NCc3ccccc3Cl)c(=O)c3ccccc32)c(C)c1	-0.2%
CC(=O)Nc1ccc(NC(=O)C2CCN(c3c(NC(C)=O)c(C)nn3-c3ccccc3)CC2)cc1	0.2%
Fc1ccc(CN2CCc3nc(N4CCN(c5ccccc5F)CC4)ncc3C2)c(F)c1	-0.4%
Cc1ccc2oc3c(c(=O)c2c1)C(c1cccc(O)c1)N(CCCN1CCOCC1)C3=O (stereo unspecified)	0.3%
COc1cccc(Cc2nc3cccnc3n2C2CCN(C(=O)c3n[nH]c4c3CCCC4)CC2)c1	0.7%
O=C(Cc1ccc(Cl)cc1)Nc1ccc2oc(-c3ccccc3)nc2c1	0.1%
Cc1ccc2c(c1)N(C(=O)CCC(=O)NCc1ccccc1Cl)CC(C)O2 (stereo unspecified)	1.4%
COC(=O)c1ccc(NC(=O)CCc2c(C)nc3c(-c4ccccc4)c(C)nn3c2C)cc1	2.4%
CCCc1ccc(OC(C)c2nc(-c3ccc(-n4cccc4)cc3)no2)cc1 (stereo unspecified)	7.0%
O=C(C1CCCN(S(=O)(=O)c2cccc3nsnc23)C1)N1CCN(c2ccccc2)CC1 (stereo unspecified)	5.5%
Cc1ccc(S(=O)(=O)N2CCN(c3nc(-c4ccncc4)nc4ccccc34)CC2)cc1	1.5%
CCc1ccccc1NC(=O)Cn1c(=O)n(-c2ccccc2)c(=O)c2oc3ccccc3c21	-0.4%
CCc1ccccc1NC(=O)N1CCCn2nc(C)cc21	-0.2%
CCc1ccc(CNC(=O)c2ccc3c(Cl)c4c(nc3c2)CCCC4)cc1	5.5%

3 structures out of the list, ordered by formula weight, lowest first:
compound	PINK1 expr mod
CCc1ccccc1NC(=O)N1CCCn2nc(C)cc21	-0.2%
CCCc1ccc(OC(C)c2nc(-c3ccc(-n4cccc4)cc3)no2)cc1 (stereo unspecified)	7.0%
O=C(C1CCCN(S(=O)(=O)c2cccc3nsnc23)C1)N1CCN(c2ccccc2)CC1 (stereo unspecified)	5.5%
